Compound activity as filed in PubChem.
2A StopGo: FMDV 2A StopGo reporter, luciferase signal; human cells with a luciferase reporter of 2A StopGo recoding; control for the full effect not named in the record; Potency, µM (top dose mostly 57.9 µM), without a hit: at the highest dose signal change, negative = less light; actives 1.2% (n = 410,000); AID 1159524; active = well fitted falling curve with a large enough effect; inconclusive = small, poorly fitted or top-dose-only effect; inactive = no such curve, though single readings can be large or run the other way; tested in HEK293T cells; note: nearly all actives have a fitted effect of over 45% in size; luciferase light after 4 h
RE007 growth inh: less growth of the S. pombe RE007 Vpr strain. S. pombe RE007 Vpr strain, BacTiter-Glo ATP luminescence, 24 h; control for the full effect not named in the record. actives 0.21% (n = 360,000). Potency, µM (top dose mostly 92.2 µM), without a hit: at the top dose activity change, negative = less growth; active = well fitted falling curve with a large enough effect; inconclusive = small, poorly fitted or top-dose-only effect; inactive = no such curve, though single readings can be large or run the other way;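 note: nearly all actives have a fitted effect of over 50% in size; the assay follows cell death caused by Vpr and the record does not say whether a fall means rescue or toxicity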
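Fission yeast RE007 carrying one integrated HIV-1 vpr copy, seeded at OD 0.01 in PMG+AL medium with 23 nL pinned compound. Grown 24 h at 30 degrees; viability read by BacTiter-Glo luminescence after 5 min.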
* = called active by the depositor; u = inconclusive; & = joins results of further samples; [ ] = another dose, or the depositor's remark. % is set by controls: 0 for no effect and ±100 for the full control effect; potency is the fitted concentration of half-maximal effect. These rows are one share of the data; rates above refer to the full screens.

SMILES | 2A StopGo | RE007 growth inh
Cc1cccc(C)c1NC(=O)C1(C)CCC(=O)N1CCOc1ccccc1 (configuration not stated) | -20% | 11%
CC(=O)Nc1cccc(/C(C)=N/NC(=O)c2cccc(S(=O)(=O)N3CCCC3)c2)c1 | -21% | 11%
c1ccc2c(c1)COc1c3cc4c(cc3nn1-2)OCO4 | -12% | 23%
O=C1NC[C@H](Cc2ccccc2)N(CC2CCN(CCC34CC5CC(CC(C5)C3)C4)CC2)C1=O | -15% | 0%
CC(C)C[C@H]1CN([C@@H](Cc2ccccc2)CN2CCC[C@H]2CN2C(=O)C(=O)NC[C@@H]2Cc2ccc(O)cc2)C(=O)C(=O)N1CCc1ccccc1 | -10% | 15%
CCCC(=O)N1CCC1(C)C(=O)Nc1ccc2c(c1)OCCO2 (configuration not stated) | 2% | 5%[18.4 µM]
CN(C)C(=O)c1cccc(-c2cnc3c(NC=O)cc(-c4ccc(C(=O)N5CCOCC5)cc4)cn23)c1 | -24% | 1%
O=C(NCc1ccc(Cl)c(Cl)c1)c1cc(C2CCCCN2C(=O)C2CCCCC2)on1 (configuration not stated) | -4% | -2%
CC(C)(C)OC(=O)N(CCc1ccccc1)Cc1ccc(OCc2cccc(NC(=O)C3CCCC3)c2)cc1 | -24% | 12%
Cc1cc(C)cc(Cn2cc(CN3CC(N4CCSCC4)CS3(=O)=O)nn2)c1 (configuration not stated) | u | -6%
C[C@@H](NC(=O)[C@@H]1CCCN1C(=O)[C@@H]1CCCN1C(=O)OC(C)(C)C)c1ccccc1 | -25% | 11%
CCOC(=O)C1(CCOc2ccccc2)CCN(Cc2cccc(OC)c2)CC1 | -42% | 2%

One compound at a time, as listed above:
Cc1cccc(C)c1NC(=O)C1(C)CCC(=O)N1CCOc1ccccc1 (configuration not stated) is listed as 2A StopGo = -20%; RE007 growth inh = 11%
CN(C)C(=O)c1cccc(-c2cnc3c(NC=O)cc(-c4ccc(C(=O)N5CCOCC5)cc4)cn23)c1 is listed as 2A StopGo = -24%; RE007 growth inh = 1%

The main list resumes; the two compounds before the break are reprinted first.
SMILES | 2A StopGo | RE007 growth inh
C[C@@H](NC(=O)[C@@H]1CCCN1C(=O)[C@@H]1CCCN1C(=O)OC(C)(C)C)c1ccccc1 | -25% | 11%
CCOC(=O)C1(CCOc2ccccc2)CCN(Cc2cccc(OC)c2)CC1 | -42% | 2%
COc1ccc(-c2ccccc2)cc1NC(=O)C1(C)CCN1C(=O)C(C)C (configuration not stated) | -22% | 8%
CC(=O)N1c2ccccc2N=C(c2ccc(C(F)(F)F)cc2)C1C(=O)NC(C)C (configuration not stated) | -8% | -7%
c1ccc(-c2csc(Nc3ccc4c(c3)OCO4)n2)cc1 | -8% | -14%
C[C@@H]1CN([C@@H](C)CO)C(=O)CCCn2nncc2CO[C@H]1CN(C)C(=O)OCc1ccccc1 | 0% | -2%
N#CC(C#N)=C(N)/C(C#N)=C/c1cc(O)c(O)c(O)c1 | -24%&-7% | 12%
CNC(=O)C1(C)CCN1C(=O)c1ccccc1CCc1ccccc1 (configuration not stated) | -8% | -3%[18.4 µM]
NC1=CC(=O)C(=O)c2cccnc21 | 40µM* | -20%
CC(C)(C)c1ccc(S(=O)(=O)NC(=O)C2(C)CCN2C(=O)C2(c3ccc(Cl)cc3)CC2)cc1 (configuration not stated) | 45%[activator] | -7%
OC(c1ccccc1)(c1ccccc1)C1CCN(CCCOc2ccccc2)CC1 | 0% | 0%
O=C(NC1CCCCC1)C1c2ccccc2OCC(=O)N1Cc1ccccc1 (configuration not stated) | -15% | 5%
COc1cccc(-c2cnc3c(NC(C)=O)cc(-c4ccc(C(=O)N5CCOCC5)cc4)cn23)c1 | 5% | 9%[18.4 µM]
O=C(NCCN1CCC(n2c(=O)[nH]c3ccccc32)CC1)c1cccc(Cl)c1 | -15% | -2%
OC[C@@H]1CN(Cc2ccccc2)C[C@H](n2cnc3c(Nc4ccccc4)ncnc32)O1 | -8% | 12%
COCCn1c(=S)[nH]c2cc(C(=O)NCc3ccc(F)cc3)ccc2c1=O | -5% | -6%
Cc1ccc(F)cc1-c1cc2nc(NCCCN(C)C)n(C)c(=O)c2s1 | -16% | 2%
CN(CCc1ccccc1)C(c1ccnc2ccccc12)c1nnnn1-c1ccc2c(c1)OCCO2 (configuration not stated) | -12% | -11%
CCCOc1ccc(/C(O)=C2/C(=O)C(=O)N(CCN3CCOCC3)C2c2ccccc2)cc1 (configuration not stated) | 13% | 4%
O=C(O)c1cccc(Br)c1 | -10% | 13%
Cc1ncc(C)c2c([N+](=O)[O-])cccc12 | -5% | -3%
O=c1c(-c2ccco2)nc2ccccc2n1C(c1ccccn1)c1nc2ccccc2[nH]1 (configuration not stated) | 23% | -17%
CC(C)(C)NC(=O)C1(C)CCC(=O)N1CCCn1ccnc1 (configuration not stated) | -16% | 11%
CC(=O)c1cccc(-c2cnc3c(NC=O)cc(-c4ccccc4)cn23)c1 | -28% | 9%
COc1ccccc1C(=O)N1CCCC(C)(C(=O)NS(=O)(=O)C2CC2)C1 (configuration not stated) | -2% | 9%
Cc1cccc2nc(-c3ccccc3)c(-c3ccc(CN4CCC(n5c(=O)[nH]c6ccccc65)CC4)cc3)nc12 | u | u
Cc1ccc(F)c(S(=O)(=O)NC(=O)C2(C)CCN2C(=O)COc2ccc(Cl)cc2)c1 (configuration not stated) | -13% | 11%
O=c1[nH]nc(-c2ccc[nH]2)[nH]1 | -24% | -19%
CC(C)(C)OC(=O)N1CCc2onc(-c3ccc(N)cc3)c2C1=O | -3% | 9%
C=C(C)Cn1c2ccc(NC(=O)NCc3ccc(F)cc3)cc2c(=O)n1C | 16% | 0%[18.4 µM]
CC1(C(=O)Nc2ccc3c(c2)OCCO3)CCN1C(=O)C1(c2ccc(Cl)cc2)CC1 (configuration not stated) | -15% | 12%[18.4 µM]
O=C(NC1CCCC(C(F)(F)F)C1)c1ccc([N+](=O)[O-])o1 (configuration not stated) | -17% | -12%
COc1cc(CN2CCC(C(=O)NC(c3ccccc3)c3ccsc3)CC2)cc(OC)c1 (configuration not stated) | -22% | 0%
O=C(Nc1nccs1)c1ccc2sc([C@H]3C[C@H](O)[C@@H](CO)O3)nc2c1 | 27% | 17%
COC(=O)c1cc(S(=O)(=O)NCC(C)c2ccccc2)c[nH]1 (configuration not stated) | 22% | 5%
Clc1cccc(Cc2c(-c3cccc(Cl)c3)nc3c4ccccc4ccn23)c1 | -15% | 1%
CCCCNC(=O)c1nc(C2CCN(S(=O)(=O)c3ccccc3C(F)(F)F)CC2)oc1-c1ccccc1 | -14% | 3%
CC1(C(=O)Nc2ccc3c(c2)OCO3)CCN1Cc1csc2ccccc12 (configuration not stated) | -29% | -8%
CCOC(=O)[C@]12CCCC=C1N(Cc1ccccc1)C(=O)[C@H](CC(=O)N1CCC(c3ccccc3)CC1)C2 | -16% | -2%
CN(Cc1ccccc1)C(=O)c1cccc(NC(=O)Cc2ccc(NC(=O)C3CCN(C(=O)C4CCCC4)CC3)cc2)c1 | u | 2%
CCCCCCC=C1CCC(CN2CCCC2)C1=O (configuration not stated) | u | 4%[18.4 µM]
CC(Nc1nc(-c2ccc(F)cc2)cs1)c1nc2cc(Cl)c(Cl)cc2n1CCOCCO (configuration not stated) | -12% | -4%
c1ccc(COc2cccc(-c3cc4nc(NCc5cccs5)ccn4n3)c2)cc1 | 0% | -26%[18.4 µM]
CN(C)Cc1ccccc1-c1cccc2nccn12 | -7% | -15%
OC(c1ccc(F)cc1)c1nc(-c2ccc(Cl)cc2)cs1 (configuration not stated) | 8% | u
O=C(NCc1cccs1)c1csc([C@@H]2C[C@H](O)[C@@H](CO)O2)n1 | -18% | -7%
COc1ccc(S(=O)(=O)N2CC=C(c3ccccc3)CC2)cc1OC | -25% | -6%
CCc1nc2c(OCCc3cccc(OC)c3)cccn2c1N(C=O)Cc1ccc(OC)cc1 | u | -10%[18.4 µM]
C[C@H]1CN([C@@H](C)CO)C(=O)CCCn2nncc2CO[C@H]1CN(C)C(=O)Nc1cccc(Oc2ccccn2)c1 | 3% | 36%
COc1ccc(NC(=O)c2sc3nc(N4CCOCC4)c4c(c3c2N)CCCC4)cc1 | -10% | 8%
CN(C(=O)c1cccc(NC(=O)Cc2cccc(NC(=O)C3CCN(C(=O)C4CCCCC4)CC3)c2)c1)C1CC1 | -8% | -9%
COc1cccc(-c2ccc3c(c2)N(Cc2ccc(F)cc2)C(=O)C(C)S3)c1 (configuration not stated) | -23% | -15%
COc1ccc(-c2nc(NC(=O)c3ccco3)sc2C)cc1 | 1% | u
COC[C@]12CN(C)C3C4[C@H](OC)[C@H]1C3([C@@H](OC)C[C@H]2O)[C@@H]1C[C@@]2(O)[C@H](OC(=O)c3ccccc3)[C@@H]1[C@]4(OC(C)=O)[C@@H](O)[C@@H]2OC | -7% | 4%
CCCCCCN1C[C@H](n2cc(-c3ccc(F)cc3)nn2)[C@@H](O)C[C@@H]1c1ccc(Cl)cc1 | -6% | 7%
CC(C)C[C@H]1CN(CCCC[C@H]2CNC(=O)C(=O)N2CCc2ccccc2)C(=O)C(=O)N1CCc1ccccc1 | -11% | 5%
CCOC(=O)C1CCC(=O)N1Cc1c[nH]c2ccccc12 (configuration not stated) | -1% | 1%[18.4 µM]
C#CCN(C[C@@H]1[C@@H](OC(=O)NCc2ccco2)[C@@H](OC(=O)NCc2ccco2)Cn2c(=O)n(CCCCCC)c(=O)n21)S(=O)(=O)c1ccc(C)cc1 | 28µM* | 4%
CCCNC(=O)c1cc(C2CCCCN2C(=O)OC)on1 (configuration not stated) | -24% | -13%
Cc1ccc(S(=O)(=O)N2CC3(O)CN(C(=O)OC(C)C)N(C(=O)OC(C)C)CC3(OC(=O)NCC3CCCCC3)C2)cc1 (configuration not stated) | u | -4%
CC1ON=C(c2ccc(F)cc2)NC1=O (configuration not stated) | -2% | 3%[18.4 µM]
CCc1ccc(OC2(C)CCN(CCOc3ccc(C)cc3)C2)cc1 (configuration not stated) | -18% | -20%

Six compounds drawn at random from those above, as already listed:
SMILES | 2A StopGo | RE007 growth inh
COc1cccc(-c2ccc3c(c2)N(Cc2ccc(F)cc2)C(=O)C(C)S3)c1 (configuration not stated) | -23% | -15%
Cc1ccc(S(=O)(=O)N2CC3(O)CN(C(=O)OC(C)C)N(C(=O)OC(C)C)CC3(OC(=O)NCC3CCCCC3)C2)cc1 (configuration not stated) | u | -4%
CCCCCCN1C[C@H](n2cc(-c3ccc(F)cc3)nn2)[C@@H](O)C[C@@H]1c1ccc(Cl)cc1 | -6% | 7%
CN(C(=O)c1cccc(NC(=O)Cc2cccc(NC(=O)C3CCN(C(=O)C4CCCCC4)CC3)c2)c1)C1CC1 | -8% | -9%
COC[C@]12CN(C)C3C4[C@H](OC)[C@H]1C3([C@@H](OC)C[C@H]2O)[C@@H]1C[C@@]2(O)[C@H](OC(=O)c3ccccc3)[C@@H]1[C@]4(OC(C)=O)[C@@H](O)[C@@H]2OC | -7% | 4%
CC(C)C[C@H]1CN(CCCC[C@H]2CNC(=O)C(=O)N2CCc2ccccc2)C(=O)C(=O)N1CCc1ccccc1 | -11% | 5%

Further results:
SMILES | 2A StopGo | RE007 growth inh
COc1cc(C(=O)C(=O)N2CCN(c3ccccc3)CC2)cc2ccccc12 | 3% | -15%
O=C1NC[C@H](CCCCN2C[C@H](Cc3ccccc3)N(CCC3CCCCC3)C(=O)C2=O)N(CCc2ccccc2)C1=O | -10% | 6%
CC(=O)N1N=C(N)SC1c1ccc(Cl)c(Cl)c1 (configuration not stated) | -22% | 5%
COc1ccc(CCCN2CCC(CN3CCNC(=O)C3=O)CC2)cc1OC | -19% | 3%
CCN(CC)c1ncnc2c1ncn2[C@H]1CN(Cc2ccncc2)C[C@@H](CO)O1 | -13% | 12%
O=C(NC1CCCC1)C(c1ccc(F)cc1)N1CCC(O)(c2ccc(Cl)cc2)CC1 (configuration not stated) | -7% | -16%
CCOC(=O)C1=CC[C@@H](c2ccc([N+](=O)[O-])cc2)N(S(=O)(=O)c2ccc(C)cc2)[C@H]1c1ccccc1 | -17% | 6%
Cc1cccc(C)c1N1C(=O)c2ccccc2NC(=O)C1C(=O)Nc1ccc(N2CCOCC2)cc1 (configuration not stated) | -14% | -6%
CC(C)C[C@H]1CN([C@@H](CC(C)C)CN2CCCC2CN2C(=S)NC[C@@H]2Cc2ccc(O)cc2)C(=S)N1CC1CCCCC1 (some centres not stated) | u | 3%
Cc1cc2nc(-c3ccco3)c(Cc3cccc(F)c3)n2c(C)c1Br | u | u
COc1ccc(Cl)cc1NC(=O)c1cccc(S(=O)(=O)Nc2c(C)n(C)n(-c3ccccc3)c2=O)c1 | -10% | -15%
CC(=O)Nc1cncc(-c2ccccc2N(C)C)n1 | -15% | -2%[18.4 µM]
CN(C)c1ccc(CC(=O)N2CCCCC2c2cc(C(=O)Nc3ccccc3)no2)cc1 (configuration not stated) | u | -13%
COc1cc(-c2cnc3c(NC=O)cc(-c4ccc(N5CCN(C)CC5)cc4)cn23)cc(OC)c1OC | -1% | -21%
CCN(CC)C(=O)c1cccc(-c2csc(C(NC(C)=O)c3ccccc3)n2)c1 (configuration not stated) | -10% | 10%[18.4 µM]
